# Compound activity deposited in PubChem by National Center for Advancing Translational Sciences (NCATS).
# Anesthetic bind = binds horse apoferritin like a general anesthetic; P02791; apoferritin/1-aminoanthracene competitive binding, fluorescence; Potency, µM (series often up to 77.5 µM), for inactives: at the highest dose activity change, negative = displacement, actives largely listed as inhibitors; hit rate 0.074% among 350,000; AID 485281; further: on the % scale 0 is the no-effect control and ±100 the full control effect; nearly all actives have a fitted effect of over 20% in size
# Target sequence (P02791 2-175 limits assumed): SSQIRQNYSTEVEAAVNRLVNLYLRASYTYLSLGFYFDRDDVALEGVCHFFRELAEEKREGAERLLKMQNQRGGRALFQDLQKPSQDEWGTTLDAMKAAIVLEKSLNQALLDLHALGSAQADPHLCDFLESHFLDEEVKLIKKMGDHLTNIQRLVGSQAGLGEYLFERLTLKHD
#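 Horse-spleen apoferritin (10 uM) in 50% saturated 1-aminoanthracene in PBS was incubated 10 min at room temperature with compound. Fluorescence (ex 380, em 535 nm) was normalized to free and bound 1-AMA, with concentration-response fitted by a four-parameter Hill equation.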
# POLI inh = inhibitors of human DNA polymerase iota. Pol iota fluorescent replication assay, 10 min. AID 588590. Q9UNA4. Potency, µM (series often up to 115 µM), inactives show at the highest dose activity, negative = inhibition, hits mostly inhibitors. hit rate 1% among 390,000
#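 Fluorescent replication assay read twice, at 0 min and 10 min after adding 50 nM (final) substrate. Enzyme (10 nM) and compounds were first incubated 15 min at room temperature; enzyme-free buffer wells were negative controls.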
# G9a inh = inhibitors of human histone lysine methyltransferase G9a; Q96KQ7; G9a H3K9 monomethylation, AlphaScreen, 2 h; Potency, µM (highest dose often 102 µM), for the others: at the highest dose activity, negative = inhibition, most hits filed as inhibitors; hit rate 8.8% among 350,000; AID 504332; further: on the % scale 0 is the no-effect control and ±100 the full control effect; nearly all actives have a fitted effect of over 75% in size
# Target sequence (Q96KQ7 913-1193 limits assumed): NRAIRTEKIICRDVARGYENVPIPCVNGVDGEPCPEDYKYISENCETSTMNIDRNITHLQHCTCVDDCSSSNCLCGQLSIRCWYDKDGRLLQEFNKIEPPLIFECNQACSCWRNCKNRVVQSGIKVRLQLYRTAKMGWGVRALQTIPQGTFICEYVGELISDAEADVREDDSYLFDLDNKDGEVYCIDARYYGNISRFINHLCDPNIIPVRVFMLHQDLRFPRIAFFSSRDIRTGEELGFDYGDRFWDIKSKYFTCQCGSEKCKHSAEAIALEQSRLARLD
#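 G9a (20 nM) was preincubated 15 min with compound, then reacted 2 h at room temperature with 500 nM biotin-H3K9 peptide and 20 µM SAM. Monomethyl-H3K9 detected by AlphaScreen using anti-H3K9me1 antibody.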
# POLK inh = DNA polymerase kappa (human) inhibition | purified Pol kappa, fluorescent DNA synthesis assay, 10 min | Potency, µM (titrated, usually from 107 µM), for inactives: at the top dose activity, negative = inhibition, actives largely listed as inhibitors | hit rate 0.53% among 400,000 | AID 588579; further: on the % scale 0 is the no-effect control and ±100 the full control effect
#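 Fluorescent qHTS in 1536-well format: enzyme (10 nM) and compound sat 15 min at room temperature before 50 nM substrate (final) was added. Signal taken at 0 and 10 min; no-enzyme buffer wells were negative controls.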
# BLM inh = blocks DNA unwinding by human BLM helicase; P54132; recombinant BLM DNA unwinding, fluorescence dequenching; Potency, µM (series often up to 56.1 µM), inactives show at the highest dose activity change, negative = inhibition, usual class: inhibitors; hit rate 0.2% among 350,000; AID 2528;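 further: plate controls were vehicle for no effect and no enzyme for full effect; nearly all actives have a fitted effect of over 35% in size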
# * hit, by the source's call; ? = inconclusive; / = not tested or not shown; & = joins results of further samples; [ ] = another dose, or the depositor's remark. The call rests on the fitted dose curve; in most records, active means well fitted curve in the direction sought with a large enough effect; inconclusive means small, poorly fitted or top-dose-only effect, or another doubt; inactive means no such curve, though single readings can be large; an effect the other way counts as inactive or inconclusive. Potency means the concentration at half of the fitted maximal effect. A portion of the library; count on the stated rates, not on these rows.
# Order of values – Anesthetic bind | POLI inh | G9a inh | POLK inh | BLM inh
Cc1ccc2nc(N(CCN(C)C)C(=O)/C=C/c3cccs3)sc2c1
 : 41%[activator] | -12% | -5%[59 µM] | -11% | 0%
Cc1ccc(C2(c3noc(CN(C)Cc4ccccn4)n3)CCCC2)cc1
 : -23% | 4% | 15% | 1% | -6%
C=CCn1c(SCC(=O)NC23CC4CC(CC(C4)C2)C3)nc2cc(C(=O)O)ccc2c1=O
 : -9% | 153%[activator] | 40% | -10% | -3%
CC(Sc1n[nH]c(N)n1)C(=O)C12CC3CC(CC(C3)C1)C2 (configuration not stated)
 : ? | 3% | 2%[59 µM] | -13% | -4%
O=C(Nc1cccc(S(=O)(=O)NC2=NCCCCC2)c1)c1cccnc1Cl
 : -3% | 8% | / | 1% | -5%
Cc1cccc(CNc2ncncc2-c2ccccc2C(F)(F)F)c1
 : -20% | / | / | -9%[60.1 µM] | -7%
COc1cc(/C=C(\C#N)C(=O)NC2CCCCC2)ccc1OCc1ccc(C(=O)O)cc1
 : -13% | ? | -19%[59 µM] | -15% | -3%
COc1ccc(C(=O)/C=C2/C(=O)Nc3ccccc32)cc1OC
 : -11% | ? | -50% | -18% | -4%
CC(=O)Nc1ccc(S(=O)(=O)N(C)CC(=O)NNc2c(F)c(F)cc(F)c2F)cc1
 : / | 7% | / | 2% | /
O=C(OCc1ccccc1)c1ccccc1O
 : / | 4% | / | 9% | /
Cc1cc2c(cc1S(=O)(=O)CCC(=O)NC1CCC(C)CC1)OCC(=O)N2 (configuration not stated)
 : -16%&-8% | 5%&25% | -25% | 10% | -2%&4%
CCCc1cc(=O)[nH]c(SCC(=O)Nc2ccccc2C#N)n1
 : 3% | -5% | 1%[2.33 µM] | 3% | -9%
CC1=C(C(=O)Nc2cc(C)ccn2)C(c2ccc(C)cc2)C2=C(CCCC2=O)N1 (configuration not stated)
 : 50%[activator] | 15% | -8%[59 µM] | 1% | -1%
Cc1c(C(=O)Nc2ccc(Cl)cc2)c2ccccn2c1C(=O)c1ccc([N+](=O)[O-])cc1
 : -6% | 6% | ? | -18% | -3%
CCC(=O)NC(=S)Nc1cccc(NC(=O)c2ccc(Cl)cc2Cl)c1
 : -18% | -3% | -5%[2.33 µM] | -15% | -2%
CSc1nc(N(C)C)nc(N2CC(=O)N(CCNS(=O)(=O)c3ccc(C)cc3)C2=N)n1
 : -12% | 186%[activator] | 12%[59 µM] | 3% | -9%
CCn1c(Cc2ccccc2)nnc1SCC(=O)Nc1ccc(S(N)(=O)=O)cc1
 : -3% | 6% | 0%[59 µM] | -3% | 0%
COC(=O)[C@H](C(C)C)N(Cc1ccccc1)S(=O)(=O)CCN1CCCC1
 : / | 6% | / | 3% | /
Cc1ccc(/C=N/NC(=O)c2ccccc2OCc2ccc(F)cc2)o1
 : -12% | 8% | ? | -15% | 6%
Cc1ccc(C(=O)NC(C(=O)OCc2cn3cc(Cl)ccc3n2)C(C)C)cc1 (configuration not stated)
 : / | 27% | 5%[12.7 µM] | -1% | /
O=C(NN=Cc1c(F)c(F)c(F)c(F)c1F)c1ccc(NS(=O)(=O)c2cccs2)cc1
 : / | 3% | / | -3% | /
Cc1c(NS(=O)(=O)c2cc(C(=O)NCCN(C)C)ccc2Cl)c(=O)n(-c2ccccc2)n1C
 : -2% | ? | ? | ? | -10%
Cc1noc(NS(=O)(=O)c2ccc(N)cc2)c1C
 : -1% | 5% | 14% | 9% | 2%
COc1cccc(-c2nccc(-n3ccnc3)n2)c1
 : -7% | / | / | 3%[60.1 µM] | -5%
COc1cc(NS(C)(=O)=O)ccc1Nc1c2ccccc2nc2ccccc12
 : / | ? | 12µM* | 0%[60.1 µM] | /
CN(C)c1ncc2nc(-c3cccs3)c(=O)n(Cc3cccs3)c2n1
 : / | / | 6%[0.501 µM] | -4%[60.1 µM] | 2%
Cc1cc2c(cc1S(=O)(=O)CCC(=O)N(C)Cc1ccccc1)OCC(=O)N2
 : -7%&32% | -7%&8% | 11µM* | -13%&-10% | 0%&-8%
Cc1ccc(C2(c3noc(CN4CCOCC4)n3)CCCC2)cc1
 : -8% | 15% | / | 1% | -4%
CCOc1ccccc1NS(=O)(=O)c1c[nH]c(C(=O)OC)c1
 : -15% | 6% | 6% | -11% | 0%
Fc1ccc(OCCCCCn2ccnc2)cc1
 : 0% | 1% | 13% | -5% | -2%
Cc1ccc(C2(c3noc(CN4CCC(C(=O)N5CCOCC5)CC4)n3)CCCC2)cc1
 : 1% | 24% | / | 0% | 2%
CC(=O)Oc1c(C)c(C)c2c(c1C)CC[C@@](C)(CCC[C@H](C)CCC[C@H](C)CCCC(C)C)O2
 : 6% | -9% | -19%[59 µM] | -2% | -4%
Cc1nnc(SCC(=O)N(C)c2ccccc2)n1Cc1ccccc1
 : -7% | 2% | 2% | -9% | 0%
CC1(C)CC(/C=C/c2ccccc2)=Nc2ccccc2N1
 : 10% | 31% | / | 15% | -5%
Cc1cc(=O)[nH]c(SCC(=O)Nc2cc(S(=O)(=O)N(C)C)ccc2Cl)n1
 : 1% | -19% | ? | -3% | 1%
O=c1[nH]c(=O)n(C2CC(O)C(CO)O2)cc1C(F)(F)F (configuration not stated)
 : -1% | / | -24%[2.33 µM] | 5%[60.1 µM] | -6%
COc1ccc(C(=O)NNC(=S)NC(=O)c2ccc(Br)o2)cc1OC
 : -5% | 134%[activator] | -45% | -20% | -4%
CC(=O)N1CCc2cc(C(=O)CN3CCC(C)CC3)ccc21
 : -17% | -24% | 18µM* | 8% | -3%
Cc1ccc(C2(c3noc(CN(C)CCCN4CCOCC4)n3)CCCC2)cc1
 : -10% | / | -24% | / | -2%
Cc1ccc(C)c(OCCn2ccnc2)c1
 : -5% | 40µM* | / | 79µM* | -19%
Cc1cccc2cc(CN(Cc3ccco3)C(=O)c3ccncc3)c(=O)[nH]c12
 : 2% | -6% | -8%[12.7 µM] | 2% | 2%
O=C(N/N=C/c1ccoc1)c1ccccc1Br
 : -6% | ? | 38% | -13% | -6%
COc1ccccc1NC(=O)CCC(=O)Nc1ccccc1OC
 : 5% | 10% | 6%[59 µM] | -13% | -1%
CCOc1ccccc1NC(=S)NCc1ccco1
 : -8% | 37%[activator] | ? | -20% | 0%
O=S(=O)(c1ccccc1)N1CCN(Cc2cc3c(cc2Br)OCCO3)CC1
 : / | 3% | -13%[2.33 µM] | -2% | /
CN(C)CCN(C(=O)/C=C/c1cccs1)c1nc2ccc(Br)cc2s1
 : -7% | 6% | 15%[59 µM] | 0% | 3%
Cc1c(/C=N/NC(=O)c2cc(Br)ccc2O)c(=O)n(C)c(=O)n1C
 : 1% | 18% | 5%[59 µM] | 4% | -2%
O=C(/C=C/c1c(Cl)cccc1Cl)NCc1ccco1
 : -8% | 6% | 6% | -7% | 5%
COc1ccc2oc(-c3ccc(O)cc3)cc(=O)c2c1
 : / | / | / | -6%[19.4 µM] | 3%
COc1ccccc1/C=C(\NC(=O)c1ccccc1)C(=O)NCc1ccco1
 : 9% | 44%[activator] | -14% | 5% | 1%
NC(=O)c1ccc(S(=O)(=O)N2CCSCC2)cc1
 : -7% | 76%[activator] | / | -3% | 0%
O=C(N/N=C/c1ccc(F)cc1)c1sccc1OCc1ccc(F)cc1
 : ? | 9% | ? | -19% | -2%
O=c1c2ccccc2nc2c3ccccc3c(NCc3ccco3)nn12
 : -6% | 19% | 18%[12.7 µM] | -4% | 1%
Cc1ccc(C(=O)N/N=C/c2ccoc2)cc1C
 : -7% | 3% | / | 3% | -13%
O=C(O)CN1C(=O)SC(Nc2ccc(C(=O)O)cc2)C1=O (configuration not stated)
 : 4% | -7% | ? | 8% | 2%
COc1ccccc1C(=O)N/C(=C\c1ccccc1)C(=O)NCc1ccco1
 : -11% | 41%[activator] | 7% | 0% | -2%
O=C(NC(=S)Nc1ncccn1)c1ccc(Cl)cc1Cl
 : -4% | 146%[activator] | ? | -4% | -14%
CC1(C)CC(C(CCN(Cc2ccccc2)C(=O)c2ccco2)c2ccc(F)cc2)CCO1 (configuration not stated)
 : -10% | 16% | ? | -11% | -8%
Cc1ccc(C(=O)OCC(=O)Nc2cccc(S(=O)(=O)NC3=NCCCCC3)c2)c(C)c1
 : -14% | 66%[activator] | ? | -1% | -4%
Cc1ccc(S(=O)(=O)NCC(=O)OCC(=O)Nc2cccc(S(=O)(=O)NC3=NCCCCC3)c2)cc1
 : -15% | 119%[activator] | 63%[activator] | -17% | -2%

# (next part)
# Order of values – Anesthetic bind | POLI inh | G9a inh | POLK inh | BLM inh
CCN1CCN(c2nc(S(=O)(=O)c3ccc(C)cc3)c(Cl)s2)CC1
 : -19% | 97%[activator] | -48% | -9% | -5%
COc1ncc2nc(C)c(=O)n(Cc3cccs3)c2n1
 : / | / | -38%[12.7 µM] | 0%[60.1 µM] | 0%
Cc1ccc(CN2CCN(Cc3cccn3-c3ccc(Cl)cn3)CC2CCO)o1 (configuration not stated)
 : -5% | 32%[activator] | -18% | 3% | 1%
NS(=O)(=O)c1ccc(CCNC(=O)Cc2ccc(S(=O)(=O)N3CCOCC3)s2)cc1
 : / | 34%[activator] | -29% | -4% | /
Cn1c(=O)[nH]c(=O)c2c1nc1n2CCCN1Cc1ccccc1
 : 13% | -18% | 23%[12.7 µM] | -4% | -3%
Brc1ccc(OCCn2ccnc2)cc1
 : 6% | 54%[activator] | -9%[59 µM] | -7%[60.1 µM] | 4%
CCCc1cc(=O)[nH]c(SCC(=O)Nc2nc(-c3ccccc3)cs2)n1
 : 6% | 49%[activator] | 10% | -3% | -4%
CCCc1cc(=O)[nH]c(SCC(=O)Nc2c(C)n(C)n(-c3ccccc3)c2=O)n1
 : / | ? | / | 2% | /
CN(C)CCN(C(=O)c1ccc(S(=O)(=O)N2CCCC2)cc1)c1nc2ccc(Br)cc2s1
 : -6% | 13% | 71µM* | -8% | -7%
Cc1cc(C)c(NC(=O)C2CCCN2C)c(C)c1 (configuration not stated)
 : -9% | 8% | -9%[2.33 µM] | -2% | 0%
CC12CCC(C/C1=N\N=C1\NC(=O)/C(=C\c3cccc(Br)c3)S1)C2(C)C (configuration not stated)
 : ? | 20% | 1.3µM* | -12% | -15%
COc1cc(C)c(NC(=S)Nc2cccc(Cl)c2)cc1OC
 : 5% | 7% | 89µM* | -4% | 1%
CN(C)S(=O)(=O)c1ccc(Cl)c(NC(=O)COC(=O)CCSc2ccccc2)c1
 : -2% | -9% | 8%[59 µM] | -6% | -4%

# 12 of the compounds above, with bars between the fields:
Compound | Anesthetic bind | POLI inh | G9a inh | POLK inh | BLM inh
Cc1c(C(=O)Nc2ccc(Cl)cc2)c2ccccn2c1C(=O)c1ccc([N+](=O)[O-])cc1 | -6% | 6% | ? | -18% | -3%
CCC(=O)NC(=S)Nc1cccc(NC(=O)c2ccc(Cl)cc2Cl)c1 | -18% | -3% | -5%[2.33 µM] | -15% | -2%
CSc1nc(N(C)C)nc(N2CC(=O)N(CCNS(=O)(=O)c3ccc(C)cc3)C2=N)n1 | -12% | 186%[activator] | 12%[59 µM] | 3% | -9%
CCn1c(Cc2ccccc2)nnc1SCC(=O)Nc1ccc(S(N)(=O)=O)cc1 | -3% | 6% | 0%[59 µM] | -3% | 0%
COC(=O)[C@H](C(C)C)N(Cc1ccccc1)S(=O)(=O)CCN1CCCC1 | / | 6% | / | 3% | /
Cc1ccc(/C=N/NC(=O)c2ccccc2OCc2ccc(F)cc2)o1 | -12% | 8% | ? | -15% | 6%
Cc1ccc(C(=O)NC(C(=O)OCc2cn3cc(Cl)ccc3n2)C(C)C)cc1 (configuration not stated) | / | 27% | 5%[12.7 µM] | -1% | /
O=C(NN=Cc1c(F)c(F)c(F)c(F)c1F)c1ccc(NS(=O)(=O)c2cccs2)cc1 | / | 3% | / | -3% | /
Cc1c(NS(=O)(=O)c2cc(C(=O)NCCN(C)C)ccc2Cl)c(=O)n(-c2ccccc2)n1C | -2% | ? | ? | ? | -10%
Cc1noc(NS(=O)(=O)c2ccc(N)cc2)c1C | -1% | 5% | 14% | 9% | 2%
COc1cccc(-c2nccc(-n3ccnc3)n2)c1 | -7% | / | / | 3%[60.1 µM] | -5%
COc1cc(NS(C)(=O)=O)ccc1Nc1c2ccccc2nc2ccccc12 | / | ? | 12µM* | 0%[60.1 µM] | /
